Assay outcomes: PubChem, National Center for Advancing Translational Sciences (NCATS)
Rango dissoc inh: qHTS Assay for Inhibitors of RanGTP induced Rango (Ran-regulated importin-beta cargo) - Importin beta complex dissociation. 340,000 tested, 0.071% active. AID 540253, 2011. Biochemical FRET Rango-importin beta, RanGTP-induced dissociation. Snurportin-1 (Homo sapiens) + GTP-binding nuclear protein Ran (Homo sapiens) + Importin …. Potency, µM (series often up to 46.1 µM), inactives show at the top dose activity change, negative = inhibition; active means falling FRET ratio curve, often poorly fitted, with flat reads before Ran was added; inconclusive means other falling curves, or compound fluorescence or quenching; inactive means flat or rising ratio curve;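 further: potency means the concentration at half of the fitted maximal effect; % of control where 0% means no effect; nearly all actives have a fitted effect of over 45% in size; -100% = wells without RanGTP and RCC1; the record marks most hits as doubtful in a second field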
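FRET read at 45 min, room temperature: inhibitors block the CFP/YFP signal rise when RanGTP (0.6 uM Ran, 2 mM GTP, 0.2 uM RCC1) frees Rango (0.1 uM) from importin beta (0.25 uM). Pre-read after 5 min compound exposure flags interference.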
Rango-impB inh: qHTS Assay for Inhibitors of Rango (Ran-regulated importin-beta cargo) - Importin beta complex formation; Importin subunit beta-1 (Homo sapiens), Q14974; Rango CFP/YFP FRET sensor + importin beta, 45 min; Potency, µM (highest dose often 92.2 µM), for inactives: at the top dose inhibition of complex formation; 340,000 tested, 0.031% active; AID 540263, 2011; active = rising FRET ratio curve, often small or poorly fitted; inconclusive = mostly compound fluorescence or quenching in the first reads; inactive = flat curves in all reads;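 further: potency means the concentration at half of the fitted maximal effect; 0% = DMSO wells and 100% = buffer wells lacking importin beta; nearly all actives have a fitted effect of over 15% in size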
Target sequence (Q14974 whole entry, looked up): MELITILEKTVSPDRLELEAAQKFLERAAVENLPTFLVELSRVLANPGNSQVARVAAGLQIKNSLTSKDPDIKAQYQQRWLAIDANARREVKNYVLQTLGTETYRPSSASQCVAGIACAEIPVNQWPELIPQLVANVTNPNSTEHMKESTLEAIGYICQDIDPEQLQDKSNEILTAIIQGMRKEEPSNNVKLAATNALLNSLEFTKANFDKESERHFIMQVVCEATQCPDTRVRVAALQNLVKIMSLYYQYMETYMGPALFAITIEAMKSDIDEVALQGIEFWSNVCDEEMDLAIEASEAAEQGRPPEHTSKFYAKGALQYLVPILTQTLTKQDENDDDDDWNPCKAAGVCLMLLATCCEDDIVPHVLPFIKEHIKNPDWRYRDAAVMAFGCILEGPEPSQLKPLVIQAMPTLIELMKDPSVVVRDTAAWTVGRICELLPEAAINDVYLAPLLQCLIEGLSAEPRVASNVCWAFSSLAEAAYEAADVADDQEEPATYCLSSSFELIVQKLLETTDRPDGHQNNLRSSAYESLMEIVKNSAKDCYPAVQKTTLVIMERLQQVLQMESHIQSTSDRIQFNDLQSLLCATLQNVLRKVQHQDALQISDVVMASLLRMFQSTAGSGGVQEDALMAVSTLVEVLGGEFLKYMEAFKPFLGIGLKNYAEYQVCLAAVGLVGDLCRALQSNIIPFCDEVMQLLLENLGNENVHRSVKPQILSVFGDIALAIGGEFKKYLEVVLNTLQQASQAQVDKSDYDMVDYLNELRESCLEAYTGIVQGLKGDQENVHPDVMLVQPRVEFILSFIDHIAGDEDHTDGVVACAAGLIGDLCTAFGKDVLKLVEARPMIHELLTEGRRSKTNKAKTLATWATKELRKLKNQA
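FRET biosensor Rango (snurportin 1 IBB between N-terminal EYFP and C-terminal Cerulean), 50 nM in PBS/1 mM DTT/0.02% Tween-20/0.1% BSA, preincubated 5 min RT with compound; 0.125 microM importin beta added, 45 min RT, CFP/YFP FRET ratio read.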
GLA inh pH 4.5: qHTS Assay for Inhibitors of Human alpha-Galactosidase at pH 4.5; purified enzyme, 4-MU-alpha-Gal fluorescence, pH 4.5; Alpha-galactosidase A (Homo sapiens), P06280; AID 1467, 2008; activity change, negative = inhibition, % at 105 µM; 230,000 tested, under 10 active; inconclusive = small, poorly fitted or top-dose-only inhibition, or a rising curve; inactive = flat fitted curve, though single readings scatter; no compound was filed as active;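 further: 0% = full activity with enzyme and -100% = basal without enzyme; dose as in the result columns while the protocol names 77 µM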
miR-21 FLuc: qHTS Assay for Modulators of miRNAs and/orActivators of miR-21 | 340,000 tested, under 10 active | HeLa miR-21 FLuc reporter, luciferase, 48 h | Potency, µM (doses to about 38.3 µM), without a hit: at the highest dose reporter change, positive = more light; active = well fitted rising curve with a large enough effect; inconclusive = small, poorly fitted or top-dose-only effect; inactive = no such curve, though single readings can be large or run the other way;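 further: % of control where 0% means no effect; miR-21 action dims this reporter so a rising signal means less miR-21 action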
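HeLa miR-21-FLuc reporter line, endogenous miR-21; 2000 cells/well in DMEM/10% FBS; compound titration up to ~40uM final, 48 h, 37 degree Celsius; luciferase detection reagent, 15 min lysis, CCD luminescence.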
The depositor's hits bear a star; ? = inconclusive; · = not tested or not shown. This is a subset (hit frequency here may not be typical).

SMILES	Rango dissoc inh	Rango-impB inh	GLA inh pH 4.5	miR-21 FLuc
COc1cccc(-n2c(=O)c3sccc3n(CC(=O)NCC3CCCO3)c2=O)c1 (centres undefined)	-2.2%	3.6%	·	0.2%
COc1ccc2c(C)nc(N/C(N)=N/S(=O)(=O)c3ccc(C)cc3)nc2c1	4.6%	2.0%	2.7	-5.0%
O=C(NCCCNc1ccc([N+](=O)[O-])cc1)C(F)(F)F	4.8%	-1.7%	9.7	-8.0%
CC(=O)OC1CCC2(C)C3CCC4(C)C(C(C)=O)CCC4C3CC3OC32C1 (centres undefined)	-1.8%	-1.9%	·	·
Cc1onc(-c2c(F)cccc2Cl)c1C(=O)NC(=S)NC1CCS(=O)(=O)C1 (centres undefined)	-7.9%	-0.2%	-22.1	-3.7%
CCCn1c(N)c(N2CCCCC2)c(=O)n(CC(=O)Nc2cccc(S(=O)(=O)N(C)C)c2)c1=O	-16.0%	-0.3%	·	·
O=C(N/N=C/c1ccc2c(c1)OCO2)c1ccn(Cc2ccc(Cl)cc2)n1	11.0%	?	·	-3.9%
c1ccc2c(c1)C(=Nn1cnnc1)c1ccccc1-2	11.8%	2.7%	-1.1	-10.5%
O=[N+]([O-])c1ccc(N/N=C2/CCCCC2c2ccccn2)cc1 (centres undefined)	-24.7%	?	-9.9	3.2%
O=c1[nH]n(CCO)c(=O)c2cccnc12	-0.5%	-3.4%	-6.6	-3.1%
CNC(=O)C(C)N1c2cccc3cccc(c23)S1(=O)=O (centres undefined)	15.4%	-3.8%	·	-6.0%
COc1ccc(N2CC(NC(=O)c3cccc4ccccc34)CC2=O)cc1OC (centres undefined)	0.6%	5.0%	·	·
Cc1ccc(CNC(=O)c2cc(S(=O)(=O)N3CCCC3)cn2C)cc1	-7.1%	-0.2%	·	5.6%
CCCCN1C(=O)C(=O)N(CC(=O)Nc2cc(S(=O)(=O)N(C)C)ccc2C)C1=O	-0.3%	2.3%	·	·
O=C(c1cc2ccccc2o1)N1CCN(S(=O)(=O)c2ccccc2)CC1	0.0%	0.6%	·	·
Cc1cccc(C(=O)n2c(=S)nc3ccccn32)c1	9.5%	0.7%	-0.9	-49.9%
O=C1CCN(CCc2ccccc2)CCN1[C@H](CSc1ccc(Br)cc1)Cc1ccccc1	-10.6%	?	-3.5	16.8%
CCOC(=O)N1CCC(NC(=O)C2CCCN(S(=O)(=O)c3cccc4nsnc34)C2)CC1 (centres undefined)	11.6%	-0.4%	2.1	4.9%
O=c1c2ccccc2ncn1CCOCCOc1ccc([N+](=O)[O-])cc1	2.7%	0.8%	2.8	1.0%
O=C1c2[nH]nc(-c3ccccc3O)c2C(c2ccccc2F)N1Cc1ccco1 (centres undefined)	-7.5%	0.4%	-16.5	1.3%

Compound profiles, as listed above. Order of screens: Rango dissoc inh	Rango-impB inh	GLA inh pH 4.5	miR-21 FLuc
CCOC(=O)N1CCC(NC(=O)C2CCCN(S(=O)(=O)c3cccc4nsnc34)C2)CC1 (centres undefined) as listed: 11.6%	-0.4%	2.1	4.9%
CC(=O)OC1CCC2(C)C3CCC4(C)C(C(C)=O)CCC4C3CC3OC32C1 (centres undefined) as listed: -1.8%	-1.9%	·	·
COc1cccc(-n2c(=O)c3sccc3n(CC(=O)NCC3CCCO3)c2=O)c1 (centres undefined) as listed: -2.2%	3.6%	·	0.2%
O=C1CCN(CCc2ccccc2)CCN1[C@H](CSc1ccc(Br)cc1)Cc1ccccc1 as listed: -10.6%	?	-3.5	16.8%
O=C1c2[nH]nc(-c3ccccc3O)c2C(c2ccccc2F)N1Cc1ccco1 (centres undefined) as listed: -7.5%	0.4%	-16.5	1.3%

Carrying on:
SMILES	Rango dissoc inh	Rango-impB inh	GLA inh pH 4.5	miR-21 FLuc
O=[N+]([O-])c1ccc(N2CCCCCC2)c([N+](=O)[O-])c1	12.5%	1.5%	-8.2	-6.3%
CCNC(=O)C(=O)Nc1cc2c3c(c1)CCN3C(=O)CC2	0.6%	-1.4%	·	2.7%
CC(=O)c1csc(-c2cccc(-c3nc4ccc(Cl)cn4c3NC3CCCCC3)c2)c1	25.5%	0.0%	·	·
Cc1nnc(SCc2ccc(CSc3nnc(C)c(=O)[nH]3)cc2)[nH]c1=O	8.1%	0.0%	-6.2	-0.6%
CC(=O)NC1C(=O)SC1(C)C (centres undefined)	·	·	-21.4	-6.4%
CCNc1nc(NCc2ccccc2)nc(Oc2ccc(=O)[nH]n2)n1	?	?	-1.6	3.9%
O=[N+]([O-])c1[nH]cnc1/C=C/c1ccccc1	?	?	5.2	-14.8%
COc1ccc(-c2cn3cccnc3n2)cc1	0.3%	-0.1%	?	-35.9%
CCOC(=O)c1nc(Nc2cc(Cl)ccc2OC)c2ccccc2n1	-5.9%	?	·	-2.0%
CC(=O)N(C1=C(N2CCOCC2)C(=O)c2ccccc2C1=O)c1ccc(C(=O)O)cc1	-6.0%	0.8%	-16.6	?
Cc1ccc(S(=O)(=O)N(C)Cc2nc(-c3ccc(Br)cc3)no2)cc1	?	-1.1%	-4.5	-1.0%
COc1ccc(N2CC(C(=O)N[C@@H](C)C(=O)NC3CCCC3)CC2=O)cc1 (some centres undefined)	4.3%	-3.3%	·	-0.2%
Cc1cccnc1NC(=O)CCNC(=O)c1ccc(Br)cc1	-0.7%	3.2%	·	-3.5%
Cc1ccc(C(=O)NCCc2nnc(SCC(=O)Nc3cccc(C(=O)O)c3)n2C)cc1	-9.9%	-1.4%	·	3.7%
O=C(CN1CCN(C(=O)c2ccco2)CC1)Nc1cc(Cl)ccc1Cl	-2.3%	-2.4%	5.3	-2.6%
CN(C)c1ccc(NC(=O)CN2CCC(O)(c3ccccc3)CC2)cc1	4.1%	0.1%	7.8	-2.5%
O=C(C=Cc1ccccc1)c1ccc([N+](=O)[O-])cc1	-19.4%	3.0%	·	·
Cc1ccc2c(c1)[C@H]1[C@H](CO2)[C@H](c2ccccc2)[C@]2(C)C(=O)N(Cc3ccc(F)cc3)CC(=O)N12	17.3%	3.9%	·	·
CCN(CC)CC(=O)Nc1ccc(-c2nc3cc(NC(=O)CN(CC)CC)ccc3o2)cc1	0.5%	-2.3%	-1.6	-20.4%
CN(C)CCCNC(=O)C[C@H]1C[C@H](C(=O)N2CCOCC2)[C@@]2(C)c3[nH]c4cc(-c5ccco5)ccc4c3CCN2C1=O	-2.6%	-1.0%	·	·
CC1(C)Cc2c(C#N)c(N3CCN(C(=O)c4ccccc4)CC3)nc(Cc3ccccc3)c2CO1	2.5%	2.1%	1.1	-0.9%
O/N=C/c1cn(-c2ccccc2)nc1-c1ccccc1	12.1%	2.9%	·	-11.5%
COC(=O)Nc1ccc(S(=O)(=O)N2CCCC(C(=O)O)C2)cc1 (centres undefined)	-10.3%	-1.4%	5.5	-2.1%
CCc1ccc(C2c3[nH]c4ccccc4c3CCN2C(=O)CN2CCN(CC)CC2)cc1 (centres undefined)	8.4%	-2.2%	-21.5	5.0%
COc1cc(NS(=O)(=O)c2ccc(C)c(C)c2)c(OC)cc1Cl	0.2%	2.5%	-0.7	10.0%
C/C(CC1(O)C(=O)Nc2ccccc21)=N\O (centres undefined)	3.4%	2.9%	8.8	0.5%
Cc1oc(-c2ccc(Cl)cc2)nc1CS(=O)CC(=O)NC(C)c1ccccc1 (centres undefined)	-4.3%	-0.8%	·	1.6%
CC(CCc1ccccc1)NC(=O)COC(=O)c1cccc(N(C)C)c1 (centres undefined)	-6.1%	-0.2%	·	2.1%
CCNC(=O)/C(=C\c1ccc2c(c1)OCO2)NC(=O)c1ccc(Br)cc1	-8.5%	?	6.1	-7.4%
O=C(c1cccc(S(=O)(=O)N2CCN(c3ccc(F)cc3)CC2)c1)N1CCN(c2ccccc2O)CC1	-13.8%	-1.6%	·	·
Cn1c(NCc2c(O)ccc3ccccc23)nc2ccccc21	-16.5%	0.1%	1.8	9.2%
C[C@H](CO)N1C[C@H](C)[C@@H](CN(C)S(=O)(=O)c2cn(C)cn2)Oc2ccc(NC(=O)NC3CCCCC3)cc2C1=O	-10.9%	-0.4%	·	·
CCOC(=O)c1c(C)[nH]c(C(=O)CC(=O)OC)c1C	12.9%	-0.5%	10.5	-19.2%
CCOC(=O)Cc1nnc(NC(=O)C23CC4CC(CC(C4)C2)C3)s1	4.7%	1.6%	-8.1	-6.1%
O=C(COc1ccc(Cl)cc1)Nc1cccc(-c2ccc3nncn3n2)c1	-10.8%	-3.0%	6.0	4.0%
CC(=O)Cc1nsc(NC(=O)c2ccc(-c3ccc(F)cc3)o2)n1	-3.6%	20.9%	-0.1	-19.2%
COc1ccc(N2CCN(c3nc(-c4cccs4)nc4ccccc34)CC2)cc1	-0.8%	-1.8%	-1.8	1.3%
C/C(=N\Nc1nc(C(=O)O)cs1)c1ccccc1	7.9%	4.3%	-4.4	-31.5%
CN(C)c1ccc(NC(=O)C2C3C=CC(C3)C2C(=O)O)cc1 (centres undefined)	16.0%	2.8%	·	-6.6%
COc1ccc(N(C(=O)c2ccco2)S(=O)(=O)c2ccccc2)cc1	7.9%	-3.4%	-2.9	-2.6%
CCCCNC(=O)O[C@@H]1C[C@H]2CCCC(=O)N3CC[C@@H](C1)[C@@H]23	-6.0%	-3.3%	·	-4.3%
CCC(=O)N1CCN(c2nc(-c3ccccc3)c3c(c2C#N)CCCC3)CC1	-19.8%	?	-8.8	0.4%
COc1ccc2[nH]c3c(c2c1)CCN1C(=O)C(CC(=O)NC(C)(C)C)C[C@H](C(=O)N2CCOCC2)[C@@]31CCC1CCCC1 (some centres undefined)	21.3%	4.0%	·	·
CC(=O)CC1=NC(C)(C)Cc2ccccc21	2.1%	0.9%	-6.3	-0.7%
Cn1c(N2CCN(C(c3ccccc3)c3ccccc3)CC2)nc2ccccc21	16.0%	5.2%	·	1.8%
O=C(Nc1nccs1)c1ccc([N+](=O)[O-])cc1	0.4%	-0.2%	?	-17.1%
Cc1cc(=O)[nH]c(N/N=C/c2cn(CCC#N)nc2-c2ccccc2)n1	25.7%	0.8%	0.0	2.8%
CN1CCN(S(=O)(=O)c2ccc(Nc3cccc(Cl)c3)c([N+](=O)[O-])c2)CC1	-10.7%	3.6%	·	·
S=C1NC2(CCCCCC2)N=C1c1ccccc1	13.2%	0.4%	2.9	1.9%
O=C(COc1ccccc1[N+](=O)[O-])N(C1CCCCC1)C1CCS(=O)(=O)C1 (centres undefined)	?	3.1%	·	·
CC(=O)c1cc2c(cc1NC(=O)CCCC(=O)O)OCO2	-5.9%	-1.4%	0.1	-6.5%
C=CCNC(=O)CSc1nnc(-c2ccc(S(=O)(=O)N3CCCC3)cc2)n1C	7.4%	3.1%	·	-1.4%
CCOc1ccc(NC(=O)CN(C)C(=O)C2CC(=O)N(c3ccc4c(c3)OCCO4)C2)cc1OCC (centres undefined)	-0.6%	2.0%	·	·
O=S(=O)(c1ccc(SCCO)nc1)N1CCCC1	-12.7%	0.7%	3.0	-0.9%
CCC(=O)OCCn1c(Br)nc2c1c(=O)[nH]c(=O)n2C	14.1%	-1.5%	1.3	-0.2%
CNC(=S)N1CCN(c2nc(-c3ccc(F)cc3)cs2)CC1	0.5%	3.8%	·	1.5%
Cc1ccc(N=c2c([N+](=O)[O-])nn(-c3ccc4c(c3)OCCO4)n2O)cc1F	27.4%	-2.8%	-3.2	-34.3%
O=C(c1cc2ncc(CCCl)cn2n1)N1CCCCCC1	-0.9%	0.0%	-2.0	-11.9%
O=C(Nc1cccc(NC(=O)c2ccco2)c1)c1ccc([N+](=O)[O-])cc1	34.6%	-3.0%	4.0	-3.5%
CCCN1CCC(=O)N([C@H](CSc2ccc(Br)cc2)c2ccccc2)CC1	-17.5%	1.7%	-3.3	-24.4%
O=C(CSc1ccccc1)Nc1nnc(COc2ccc(Cl)cc2)s1	0.4%	?	-0.1	-8.6%
